StopGo reporter – FMDV 2A StopGo reporter, luciferase signal; human cells with a luciferase reporter of 2A StopGo recoding; control for the full effect not named in the record; Potency, µM (doses to about 57.9 µM), without a hit: at the top dose signal change, negative = less light; 410,000 tested, 1.2% active; active = well fitted falling curve with a large enough effect; inconclusive = small, poorly fitted or top-dose-only effect; inactive = no such curve, though single readings can be large or run the other way; tested in HEK293T cells; note: % is set by controls: 0 for no effect and ±100 for the full control effect; nearly all actives have a fitted effect of over 45% in size; luciferase light after 4 h
NS1 function inh – influenza NS1 inhibition | S. cerevisiae slowed by influenza A NS1, growth recovery by OD600 | Potency, µM (highest dose often 46.1 µM), for the others: top-dose activity, positive = more growth | 270,000 tested, 0.4% active | AID 2326; note: actives are rising curves; nearly all actives have a fitted effect of over 50% in size
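S. cerevisiae expressing influenza A NS1, grown in glucose, washed, then diluted 1:100 into pH 6.0 -URA galactose medium with 23 nl compound. Growth recovery read as OD600; NS1-free strain serves as control.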
Lassa entry inh – blocks Lassa virus binding to or entry into cells. Lassa virus pseudotype entry inhibition, cell reporter; control for the full effect not named in the record. Potency, µM (doses to about 37.9 µM), inactives show at the highest dose activity change, negative = inhibition, hits mostly inhibitors. 300,000 tested, 1.2% active. AID 540256; active means well fitted inhibition curve with a large enough effect; inconclusive means small, poorly fitted or top-dose-only effect, or effect the other way; inactive means flat fitted curve, though single readings scatter; tested in HEK293 cells; note: % is set by controls: 0 for no effect and ±100 for the full control effect; nearly all actives have a fitted effect of over 50% in size; luciferase read-out
RE007 growth inh – less growth of the S. pombe RE007 Vpr strain | S. pombe RE007 Vpr strain, BacTiter-Glo ATP luminescence, 24 h; control for the full effect not named in the record | 360,000 tested, 0.21% active | AID 651644 | Potency, µM (titrated, usually from 92.2 µM), inactives show at the highest dose activity change, negative = less growth; active = well fitted falling curve with a large enough effect; inconclusive = small, poorly fitted or top-dose-only effect; inactive = no such curve, though single readings can be large or run the other way;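 note: % is set by controls: 0 for no effect and ±100 for the full control effect; nearly all actives have a fitted effect of over 50% in size; the assay follows cell death caused by Vpr and the record does not say whether a fall means rescue or toxicity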
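Fission yeast RE007 carrying one integrated HIV-1 vpr copy, seeded at OD 0.01 in PMG+AL medium with 23 nL pinned compound. Grown 24 h at 30 degrees; viability read by BacTiter-Glo luminescence after 5 min.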
Cruzain Triton – cruzain (T. cruzi) inhibition with detergent; P25779; purified cruzain, Z-FR-AMC fluorescence, 0.01% Triton; Potency, µM, for the others: max response, negative = inhibition, hits mostly inhibitors; 200,000 tested, 0.43% active; active = well fitted curve in the direction sought with a large enough effect; inconclusive = small, poorly fitted or top-dose-only effect, or another doubt; inactive = no such curve, though single readings can be large; an effect the other way counts as inactive or inconclusive;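 note: plate controls were neutral wells for no effect and buffer without enzyme for full effect; nearly all actives have a fitted effect of over 40% in size; top concentration of the series not given in the record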
Target sequence (P25779 123-467 limits assumed): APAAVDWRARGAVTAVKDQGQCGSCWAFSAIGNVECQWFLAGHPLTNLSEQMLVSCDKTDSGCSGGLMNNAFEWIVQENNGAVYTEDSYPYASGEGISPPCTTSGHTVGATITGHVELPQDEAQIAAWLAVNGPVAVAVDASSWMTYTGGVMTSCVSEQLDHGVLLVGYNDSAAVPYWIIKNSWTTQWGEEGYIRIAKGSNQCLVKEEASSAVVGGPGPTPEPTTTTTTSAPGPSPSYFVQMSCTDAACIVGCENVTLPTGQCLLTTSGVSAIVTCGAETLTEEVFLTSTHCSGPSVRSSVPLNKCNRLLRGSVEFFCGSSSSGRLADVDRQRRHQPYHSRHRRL
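Detergent-containing arm of a paired screen for aggregation-based inhibition: 0.01% Triton X-100 present. Cruzain at 1.5 nM cleaved 2 uM Z-FR-AMC at pH 5.5 with 5 mM DTT; AMC fluorescence gain over 60 s measured activity.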
Cruzain noTriton – cruzain (T. cruzi) inhibition without detergent; P25779; AID 1476; 200,000 tested, 2.3% active; purified cruzain, Z-FR-AMC fluorescence, no detergent; Potency, µM, without a hit: max response, negative = inhibition, actives largely listed as inhibitors; active = well fitted curve in the direction sought with a large enough effect; inconclusive = small, poorly fitted or top-dose-only effect, or another doubt; inactive = no such curve, though single readings can be large; an effect the other way counts as inactive or inconclusive;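 note: plate controls were enzyme without inhibitor for no effect and buffer without enzyme for full effect; nearly all actives have a fitted effect of over 40% in size; top concentration of the series not given in the record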
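Purified cruzain at 1.5 nM, pre-incubated 15 min with compound at room temperature in 100 mM sodium acetate pH 5.5, 5 mM DTT, 0.00005% Triton X-100. Reaction started with 2 uM Z-FR-AMC; AMC fluorescence increase over 60 s gives rate.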
MARV entry inh – Marburg virus entry inhibition; Potency, µM (series often up to 37.8 µM), inactives show at the top dose activity change, negative = inhibition, usual class: inhibitors; 300,000 tested, 1.8% active; Marburg virus pseudotyped entry inhibition, cell reporter; control for the full effect not named in the record; about a third of the inactives were read at about 46 µM; active = well fitted inhibition curve with a large enough effect; inconclusive = small, poorly fitted or top-dose-only effect, or effect the other way; inactive = flat fitted curve, though single readings scatter; tested in HEK293 cells; about a fifth of its hits are not listed in these tables; note: % is set by controls: 0 for no effect and ±100 for the full control effect; luciferase read-out
SARS PLpro yeast – inhibitors of SARS-CoV papain-like protease in yeast | S. cerevisiae expressing SARS-CoV PLpro, growth rescue; control for the full effect not named in the record | 330,000 tested, 0.19% active | AID 485353 | Potency, µM (top dose mostly 32.9 µM), for inactives: at the highest dose activity, positive = growth rescue; note: 0% is about no effect; nearly all actives have a fitted effect of over 55% in size; growth read by luminescence after 48 h
Numbers without * were called inactive; u = inconclusive; x = no result given; & = joins results of further samples; [ ] = remark or other dose. Unless noted, calls come from the whole dose curve; as a rule, active means well fitted rising curve with a large enough effect; inconclusive means small, poorly fitted or top-dose-only effect; inactive means no such curve, though single readings can be large or run the other way. Potency is the fitted concentration of half-maximal effect. Random draw from the library (roughly 4.5% active in at least one column).

SMILES	StopGo reporter	NS1 function inh	Lassa entry inh	RE007 growth inh	Cruzain Triton	Cruzain noTriton	MARV entry inh	SARS PLpro yeast
Cc1noc(C)c1CSCC(=O)N(C)CC(=O)Nc1ccccc1Br	-13%	x	9%[46.1 µM]	-9%	x	x	0%	2%
Cc1nc2scc(C)n2c(=O)c1S(=O)(=O)Nc1cccc(O)c1	-6%	x	-16%[46.1 µM]	x	-4.4%	-10%	15%[46.1 µM]	x
Cc1cc(C)cc(-n2nnnc2-c2cn(C)nc2C(F)(F)F)c1	20%	12%	-3%	2%	0.0%	-7%	-1%	-4%
CCC1CCCCN1CCCNC(=O)c1ccc(CS(=O)(=O)c2ccccc2OC)o1 (centres undefined)	41%[activator]	-8%	u	1%	x	x	-8%[46.1 µM]	-5%
N#CCCCCn1c(-c2cncs2)nc2ccccc21	12%	-23%	-3%	-2%	-4.9%	-1%	22%	0%
C=CCN1C(=O)C2C(C(=O)NCc3ccccc3)C3(C)C=CC2(O3)C1C(=O)NC(C)(C)C (centres undefined)	15%	0%	12%	6%	3.5%	-13%	-3%	-8%
O=C(c1ccc2c(=O)n(Cc3ccc(Cl)cc3)c(=S)[nH]c2c1)N1CCCC1	-18%	3%	x	6%	x	x	x	3%
O=C1CN(C(=O)COc2ccccc2Cl)c2ccccc2N1	1%	x	-3%	20%	x	x	20%	-1%
COc1ccc(/C=N/OCC(=O)NC(c2ccccc2)c2ccccc2)cc1OC	7.1µM*	16%	u	22%	-4.8%	23%	u	16%
O=C1CS/C(=N\c2ccccn2)N1C1CCCCC1	-18%	0%	-11%	-17%	2.7%	5%	-21%	-3%
Fc1ccccc1CSc1ncnc2c1ncn2C1CCCO1 (centres undefined)	29%	x	u	2%	x	x	0.89µM*	x
O=C(c1cccc(C(F)(F)F)c1)C1CCCN(C(=O)CN2CCOC2=O)C1 (centres undefined)	-9%	13%	-1%	-1%	x	x	0%	-2%
CCN(CC)c1ccc(NC(=O)CN2CCN(c3nc(C)cc(C)n3)CC2)cc1	u	-9%	-20%	12%	4.1%	-2%	u	2%
Fc1ccc(/C=N/Nc2nnnn2-c2ccccc2)cc1	0%	-6%	-24%	-16%	x	x	u	0%
O=C(CN(Cc1ccco1)C(=O)CNS(=O)(=O)c1ccc(F)cc1)NCc1ccccc1	0%	1%	-26%[46.1 µM]	-9%	x	x	-10%[46.1 µM]	-5%
O=S(=O)(Nc1ccc(Br)cc1)N1CCOCC1	0%	3%	-10%[46.1 µM]	-3%	x	x	20%[46.1 µM]	1%
COC(=O)c1c(N)nc(C)n1-c1ccc(OC)cc1	30%[activator]	0%	0%	-10%	7.4%	3%	11%	5%
O=C(Nc1nc(-c2ccc(F)c(F)c2)cs1)c1cc([N+](=O)[O-])ccc1N1CCOCC1	8%	11%	12%	1%	-2.8%	u	0%	12%
NCCNC(=O)Cc1cccc(NC(=O)Cc2ccc(Nc3ncnc4c3ncn4[C@@H]3O[C@H](CO)[C@@H](O)[C@H]3O)cc2)c1	-5%	2%	x	-2%[18.4 µM]	x	x	x	-1%
Cc1ccccc1NC(=O)CSCCO	21%	0%	-20%	-2%	2.0%	-6%	15%	3%
C/C(=C\c1ccccc1)C(=O)Nc1nc2ccc([N+](=O)[O-])cc2s1	-8%	-4%	15%	-22%	-3.0%	u	10%	-4%
CCOC(=O)C1CCN(C2CCN(C(=O)c3oc4c(C)c(C)ccc4c3C)CC2)CC1	52%[activator]	3%	x	3%	x	x	x	25%
COc1ccc(CNC(=O)CN(Cc2ccccc2)C(=O)CCC(=O)Nc2ccccn2)cc1	0%	3%	1%[46.1 µM]	-2%	x	x	u	0%
COc1cc(NC(=O)Cn2ccsc2=N)cc(OC)c1	0%	2%	-14%	4%	x	x	-8%[46.1 µM]	1%
OCC(O)C1OC(c2ccco2)OC(CO)C1O (centres undefined)	-7%	x	3%[46.1 µM]	4%	x	x	2%[46.1 µM]	x

The closing two entries of the section above come first, to join the parts:
SMILES	StopGo reporter	NS1 function inh	Lassa entry inh	RE007 growth inh	Cruzain Triton	Cruzain noTriton	MARV entry inh	SARS PLpro yeast
COc1cc(NC(=O)Cn2ccsc2=N)cc(OC)c1	0%	2%	-14%	4%	x	x	-8%[46.1 µM]	1%
OCC(O)C1OC(c2ccco2)OC(CO)C1O (centres undefined)	-7%	x	3%[46.1 µM]	4%	x	x	2%[46.1 µM]	x
O=C(c1nc2ccccn2c1CN1CCCC(OCc2ccccc2)C1)N1CCCC1 (centres undefined)	-3%	2%	2%[46.1 µM]	2%	x	x	u	0%
CC(C(=O)Nc1nccs1)N1C(=O)c2ccccc2S1(=O)=O (centres undefined)	1%	x	6%	-5%	x	x	19%	1%
O=C1COc2ccc(C(=O)COC(=O)c3ccco3)cc2N1	6%	-3%	x	-13%	x	x	x	3%
COc1ccc(CCN2CC(C(=O)NCCc3ccc(C(F)(F)F)cc3)CCC2=O)cc1 (centres undefined)	-5%	-7%	u	9%	x	x	6%[46.1 µM]	u
C=CCNc1nc2c(c(=O)[nH]c(=O)n2C)n1CCCCC	0%	6%	0%	4%	2.2%	8%	1%	4%
OC(CNCc1cccs1)c1ccccc1 (centres undefined)	23%	5%	u	-13%	x	x	22%	1%
Cc1ccc(Sc2ccc(C(=O)NC(C)C)cc2[N+](=O)[O-])cc1	-34%	-7%	-8%	8%	0.7%	10%	18%[46.1 µM]	-7%
CCOC(=O)N1CCC(=NNC(=O)c2ccccc2F)CC1	-1%	-3%	-3%	-8%	0.2%	-3%	u	4%
Cc1ccc(NC(=O)c2ccccc2OCC(=O)c2ccc(F)cc2)cc1	0%	9%	0%	1%	-2.3%	-26%	-28%	3%
CC(=O)c1ccc(NC(=O)CCn2c(=S)oc3ccccc32)cc1	-7%	-11%	x	0%	x	x	x	-3%
Nc1nc(CSc2ccc(Cl)cc2)nc(N2CCCCC2)n1	-5%	-35%	x	-3%	x	x	u	-1%
Cc1nn(-c2ccc(Cl)cc2)c2sc(C(=O)N3CCN(C(=O)c4ccco4)CC3)cc12	x	-5%	x	x	-5.7%	u	x	-1%
CC(C)Sc1nc2sccc2c(=O)n1-c1ccccc1	74%[activator]	-3%	6%[46.1 µM]	7%	x	x	1%[46.1 µM]	-1%
COc1ccc(C(=O)NCc2ccc(-c3nc4ccccc4s3)cc2)cc1	x	10%	-2%	0%	0.1%	u	5%	-1%
CNC(=O)c1ccccc1S(=O)c1ccccc1C#N (centres undefined)	-14%	8%	3%	-2%	2.4%	1%	-28%	-7%
CCN(C(=O)CN1C(=O)NC2(CCc3ccccc32)C1=O)C1CCCCC1 (centres undefined)	-9%	x	11%	15%	x	x	11%	0%
O=C(N/N=C(\CC(=O)c1cccs1)C(F)(F)F)c1cccnc1	-19%	13%	-22%	-9%	x	x	-5%	-1%
CCCOc1ccc(N2C(=O)CC(N(Cc3ccc(S(N)(=O)=O)cc3)C(=O)CC)C2=O)cc1 (centres undefined)	11%	-2%	-6%	2%	12%	7%	3%&3%	-8%
COc1cccc(NC(=O)CCc2c(C)nc3ncnn3c2C)c1	-11%	x	5%[46.1 µM]	x	0.0%	4%	u	x
CCOc1cc(S(=O)(=O)N(CC)CC)ccc1Br	-13%	-39%	-9%	-7%	-2.2%	-8%	4%	-10%
Cc1onc(-c2ccccc2)c1C(=O)Nc1ccc(S(=O)(=O)N2CCCC2)cc1	16%	-4%	u	2%	x	x	u	-3%
CCCCC(=O)Nc1ccc(NC(=O)CCCC)nc1	4%	-1%	17%	28%	0.3%	12%	2%	-4%
Cc1cccc(N2CCN(CCc3ccccc3)CC2)c1C	-17%	u	-7%	17%	7.0%	-8%	7%	7%
NC(=O)c1ccsc1NC(=O)c1ccc(N2CCCC2=O)cc1	-27%	4%	x	-23%	x	x	x	-4%
N#Cc1cc2c(nc1SCC(=O)Nc1cccc(C(F)(F)F)c1)C1CCN2CC1	2%	x	-36%[46.1 µM]	x	-3.5%	2%	-9%[46.1 µM]	x
(next part)
SMILES	StopGo reporter	NS1 function inh	Lassa entry inh	RE007 growth inh	Cruzain Triton	Cruzain noTriton	MARV entry inh	SARS PLpro yeast
O=C(COc1ccc(Cl)cc1)Nc1ccc2nc(SCC(=O)N3CCOCC3)sc2c1	-24%	x	11%[46.1 µM]	x	-6.7%	u	u	x
Cc1ccccc1CS(=O)(=O)c1cnc2ccccc2n1	-13%	-7%	u	-22%	3.9%	-5%	u	-2%
CCN(Cc1nc2cc(OC)c(OC)cc2c(=O)[nH]1)C(=O)c1ccc(S(=O)(=O)N(C)C)cc1	2%	-15%	-10%	-1%	-0.8%	10%	3%&3%	4%
Cc1oc(-c2cccc(Cl)c2)nc1CN1CCCC(C(=O)NCCCN2CCOCC2)C1 (centres undefined)	u	-3%	-27%	-9%	1.5%	-4%	u	2%
Cc1ccc(NC2CCCN(C(=O)CCc3scnc3C)C2)cc1C (centres undefined)	-11%	-2%	-4%	-26%	x	x	-17%	-4%
COCCOC(=O)c1[nH]c2c(c1C)C(=O)CC(c1ccco1)C2 (centres undefined)	u	-41%	x	-4%	-1.1%	-6%	x	-7%
CCc1ccc(/C(C)=N/NC(=O)c2c[nH]c3ccccc23)s1	4%	7%	u	18%	x	x	u	-6%
O=C(OCc1cc(=O)n2cc(Br)ccc2n1)C1COc2ccccc2O1 (centres undefined)	3%	-63%	19%	6%	-2.1%	-13%	14%	-7%
O=c1c2ccccc2nc(-c2ccccc2F)n1-c1ccccc1	0%	-1%	-20%[46.1 µM]	-26%	x	x	u	-2%
COc1ccc(OC)c(C(=O)NC(CC(N)=O)c2ccc(NCCN3CCOCC3)c([N+](=O)[O-])c2)c1 (centres undefined)	0%	5%	x	31%	x	x	x	1%
COc1ccccc1-c1n[nH]c(=S)n1N	-12%	x	-18%	4%	x	x	6%	2%
Cc1nc2cc(NC(=O)NCCC3=CCCCC3)ccc2o1	34%[activator]	5%	10%	-7%	-2.2%	-5%	5%	-5%
COc1ccc(Nc2nn3c(=O)c4cc5c(cc4nc3s2)OCO5)c(OC)c1	1%	x	u	x	2.9%	7%	-11%[46.1 µM]	x

Compound activity deposited in PubChem BioAssay by National Center for Advancing Translational Sciences (NCATS).
